Ran importin – RanGTP/importin-beta interaction disruptors – biochemical, CFP-Ran/YFP-importin-beta FRET, RCC1, cell-free, primary screen (AID 434961) | CFP-Ran/YFP-importin-beta FRET, cell-free; stronger effect = higher value | inhibition, % | 7,700 tested, 0.2% active;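 active = more than half of the replicate wells above 15% inhibition; inconclusive = exactly half above it; inactive = fewer than half above it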;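 also: 0% = DMSO wells and 100% inhibition = RanGDP control wells on each plate; stock of unstated strength diluted about 400-fold; mean of two wells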
Active calls of the source: *; ? = inconclusive.

canonical_smiles | Ran importin
C[C@H](CO)N1C[C@H](C)[C@@H](CN(C)S(=O)(=O)c2ccc3ccccc3c2)OCc2cnnn2CCCC1=O | -2.6
C[C@H](CO)N1C[C@H](C)[C@@H](CN(C)C(=O)Nc2cccc3ccccc23)Oc2c(NC(=O)Nc3cccc4ccccc34)cccc2C1=O | -0.6
COC(=O)N(C)C[C@H]1OCc2cn(nn2)CCCC(=O)N([C@H](C)CO)C[C@H]1C | -2.7
COc1ccc(S(=O)(=O)N(C)C[C@H]2Oc3ccc(NC(=O)CCCN(C)C)cc3CC(=O)N([C@H](C)CO)C[C@@H]2C)cc1 | ?
C[C@@H]1CCCCO[C@@H](CN(C)C(=O)Nc2ccccc2)[C@H](C)CN([C@H](C)CO)C(=O)c2cc(NS(C)(=O)=O)ccc2O1 | -2.2
Cc1noc(C)c1S(=O)(=O)N(C)C[C@@H]1Oc2ccc(NC(=O)c3ccncc3)cc2CC(=O)N([C@@H](C)CO)C[C@@H]1C | 0.5
Cc1noc(C)c1S(=O)(=O)Nc1cccc2c1O[C@H](CN(C)Cc1ccc(C(F)(F)F)cc1)[C@H](C)CN([C@@H](C)CO)C2=O | ?
C[C@@H]1CN([C@H](C)CO)C(=O)c2cc(NS(C)(=O)=O)ccc2O[C@H]1CN(C)C(=O)Nc1ccc2c(c1)OCO2 | -3.2
CNC[C@H]1OCCCC[C@H](C)Oc2ccc(NC(=O)Nc3cccc4ccccc34)cc2C(=O)N([C@H](C)CO)C[C@@H]1C | 0.8
C[C@H](CO)N1C[C@H](C)[C@H](CN(C)C(=O)CCC(F)(F)F)OCCCC[C@H](C)Oc2ccc(NC(=O)c3ccncc3)cc2C1=O | -0.5
C[C@@H]1CN([C@@H](C)CO)C(=O)c2cc(NC(=O)Nc3ccc(F)cc3)ccc2O[C@@H](C)CCCCO[C@H]1CN(C)C(=O)c1ccccc1 | -3.0
CNC[C@H]1OCCCC[C@@H](C)Oc2ccc(NC(=O)c3ccncc3)cc2C(=O)N([C@H](C)CO)C[C@@H]1C | -2.3
C[C@@H]1CCCCO[C@@H](CN(C)C(=O)Nc2ccccc2)[C@@H](C)CN([C@H](C)CO)C(=O)c2cc(NC(=O)CCCN(C)C)ccc2O1 | 6.9
C[C@H](CO)N1C[C@H](C)[C@H](CN(C)Cc2ccc3c(c2)OCO3)OCCCC[C@H](C)Oc2ccc(NS(=O)(=O)c3ccccc3)cc2C1=O | -2.7
Cc1noc(C)c1NC(=O)N(C)C[C@H]1Oc2ccc(NC(=O)Nc3ccc4c(c3)OCO4)cc2C(=O)N([C@@H](C)CO)C[C@H]1C | -6.7
CC(C)NC(=O)Nc1ccc2c(c1)C(=O)N([C@H](C)CO)C[C@H](C)[C@H](CN(C)C(=O)c1ccncc1)OCCCC[C@H](C)O2 | -0.8
C[C@@H]1CN([C@H](C)CO)C(=O)c2cccc(NC(=O)C3CCOCC3)c2O[C@H]1CN(C)C(=O)Nc1cccc2ccccc12 | 4.1
C[C@H](CO)N1C[C@H](C)[C@@H](CN(C)S(=O)(=O)c2ccc(C#N)cc2)OCc2cn(nn2)CCCC1=O | -2.1
CNC[C@H]1Oc2ccc(NC(=O)C3CC3)cc2C(=O)N([C@@H](C)CO)C[C@H]1C | 1.6
Cc1noc(C)c1NC(=O)N(C)C[C@H]1Oc2ccc(NC(=O)Nc3cccc4ccccc34)cc2C(=O)N([C@@H](C)CO)C[C@H]1C | 3.1
C[C@H](CO)N1C[C@H](C)[C@@H](CN(C)C(=O)Nc2ccc(F)cc2)Oc2ccc(NC(=O)CCN3CCOCC3)cc2C1=O | 2.1
Cc1noc(C)c1NC(=O)N(C)C[C@@H]1Oc2ccc(NC(=O)Cc3cn(C)c4ccccc34)cc2CC(=O)N([C@@H](C)CO)C[C@@H]1C | 1.2
C[C@H]1CCCCO[C@@H](CN(C)C(=O)Nc2ccc(C(F)(F)F)cc2)[C@@H](C)CN([C@@H](C)CO)C(=O)c2cc(NS(C)(=O)=O)ccc2O1 | -1.1
C[C@@H]1CCCCO[C@H](CN(C)C(=O)c2ccccc2)[C@@H](C)CN([C@@H](C)CO)C(=O)c2cc(NS(=O)(=O)c3ccccc3)ccc2O1 | -1.9
COc1ccc(CN(C)C[C@@H]2Oc3c(NC(=O)Nc4ccc(C(F)(F)F)cc4)cccc3C(=O)N([C@@H](C)CO)C[C@H]2C)cc1 | 5.0

Filtered by structure: the entries above with an aryl methoxy group (two)
canonical_smiles | Ran importin
COc1ccc(S(=O)(=O)N(C)C[C@H]2Oc3ccc(NC(=O)CCCN(C)C)cc3CC(=O)N([C@H](C)CO)C[C@@H]2C)cc1 | ?
COc1ccc(CN(C)C[C@@H]2Oc3c(NC(=O)Nc4ccc(C(F)(F)F)cc4)cccc3C(=O)N([C@@H](C)CO)C[C@H]2C)cc1 | 5.0

Further compounds.
canonical_smiles | Ran importin
COc1ccc(S(=O)(=O)N(C)C[C@@H]2Oc3c(NC(=O)C4CCOCC4)cccc3C(=O)N([C@@H](C)CO)C[C@@H]2C)cc1 | 3.8
C[C@@H]1CCCCO[C@@H](CN(C)Cc2ccncc2)[C@@H](C)CN([C@@H](C)CO)C(=O)c2cc(NC(=O)Nc3ccc(F)cc3)ccc2O1 | 3.6
Cc1noc(C)c1NC(=O)N(C)C[C@@H]1Oc2ccc(NS(=O)(=O)c3cn(C)cn3)cc2CC(=O)N([C@@H](C)CO)C[C@@H]1C | 1.5
C[C@H](CO)N1C[C@H](C)[C@@H](CN(C)Cc2ccc3c(c2)OCO3)Oc2ccc(N(C)C)cc2C1=O | 0.9
C[C@@H]1CN([C@@H](C)CO)C(=O)c2cc(NC(=O)CCC(F)(F)F)ccc2O[C@@H](C)CCCCO[C@H]1CN(C)Cc1ccccc1 | 4.3
C[C@@H]1CN([C@@H](C)CO)C(=O)c2cc(NC(=O)Nc3ccccc3)ccc2O[C@@H](C)CCCCO[C@@H]1CN(C)C | -2.6
COc1ccc(S(=O)(=O)N(C)C[C@@H]2Oc3ccc(NS(=O)(=O)c4cccs4)cc3C(=O)N([C@H](C)CO)C[C@H]2C)cc1 | 2.0
COc1ccc(S(=O)(=O)Nc2ccc3c(c2)CC(=O)N([C@@H](C)CO)C[C@H](C)[C@@H](CN(C)CC2CC2)O3)cc1 | -1.7
CNC[C@@H]1OCCCC[C@@H](C)Oc2ccc(N)cc2C(=O)N([C@@H](C)CO)C[C@H]1C | 4.8
Cc1noc(C)c1NC(=O)Nc1cccc2c1O[C@H](CN(C)C)[C@@H](C)CN([C@@H](C)CO)C2=O | 1.7
C[C@@H]1CN([C@H](C)CO)C(=O)c2cc(NC(=O)CCC(F)(F)F)ccc2O[C@@H](C)CCCCO[C@@H]1CN(C)S(=O)(=O)c1ccccc1 | ?
C[C@@H]1CN([C@@H](C)CO)C(=O)c2cc(NC(=O)Nc3ccc4c(c3)OCO4)ccc2O[C@@H]1CN(C)C | -2.4
CC(C)NC(=O)Nc1ccc2c(c1)C(=O)N([C@@H](C)CO)C[C@@H](C)[C@H](CN(C)C)OCCCC[C@H](C)O2 | 2.0
C[C@H]1CN([C@@H](C)CO)C(=O)c2cccc(N(C)C)c2O[C@@H]1CN(C)C(=O)NC1CCCCC1 | -2.9
C[C@H]1CN([C@@H](C)CO)C(=O)c2cccc(NC(=O)c3nc4ccccc4s3)c2O[C@H]1CN(C)C(=O)Nc1ccccc1 | -1.3
Cc1ccc(S(=O)(=O)N(C)C[C@@H]2Oc3ccc(NS(C)(=O)=O)cc3C(=O)N([C@@H](C)CO)C[C@@H]2C)cc1 | ?
Cc1noc(C)c1S(=O)(=O)Nc1ccc2c(c1)CC(=O)N([C@H](C)CO)C[C@H](C)[C@@H](CN(C)C(=O)NC(C)C)O2 | 2.7
CNC[C@H]1Oc2ccc(NC(=O)Nc3cccc4ccccc34)cc2CC(=O)N([C@H](C)CO)C[C@@H]1C | -1.1
CNC[C@@H]1OCCCC[C@@H](C)Oc2ccc(N(C)C)cc2C(=O)N([C@H](C)CO)C[C@@H]1C | -0.4
C[C@@H]1CN([C@@H](C)CO)C(=O)c2cc(NC(=O)C3CC3)ccc2O[C@H]1CN(C)C(=O)Nc1ccccc1 | 8.8
C[C@H](CO)N1C[C@H](C)[C@@H](CN(C)C(=O)NC2CCCCC2)Oc2c(cccc2N(C)C)C1=O | -3.4
C[C@@H]1CN([C@H](C)CO)C(=O)c2cc(NC(=O)Cn3cnnn3)ccc2O[C@@H]1CN(C)Cc1ccncc1 | -0.3
Cc1noc(C)c1NC(=O)Nc1cccc2c1O[C@H](CN(C)Cc1ccc(C(F)(F)F)cc1)[C@H](C)CN([C@H](C)CO)C2=O | 1.7
C[C@@H]1CN([C@H](C)CO)C(=O)Cc2cc(NC(=O)Nc3ccc(F)cc3)ccc2O[C@H]1CN(C)Cc1ccc(C(=O)O)cc1 | -1.5
C[C@H](CO)N1C[C@H](C)[C@@H](CN(C)C(=O)Nc2ccccc2)OCCCC[C@H](C)Oc2ccc(NC(=O)c3ccccc3)cc2C1=O | -2.2

(cont.)
canonical_smiles | Ran importin
CNC[C@H]1Oc2ccc(NC(=O)CCCN(C)C)cc2C(=O)N([C@H](C)CO)C[C@H]1C | -3.7
Cc1noc(C)c1NC(=O)N(C)C[C@H]1Oc2ccc(NC(=O)Nc3ccc4c(c3)OCO4)cc2CC(=O)N([C@@H](C)CO)C[C@H]1C | 2.9
C[C@@H]1CN([C@@H](C)CO)C(=O)Cc2cc(NC(=O)Nc3ccc(C(F)(F)F)cc3)ccc2O[C@@H]1CN(C)Cc1ccncc1 | -8.4
C[C@@H]1CN([C@@H](C)CO)C(=O)c2cccc(NC(=O)c3ccc(-c4nccs4)cc3)c2O[C@H]1CN(C)C(=O)Nc1ccccc1 | -9.0
C[C@@H]1CN([C@@H](C)CO)C(=O)c2cccc(NC(=O)NC3CCCCC3)c2O[C@H]1CN(C)C(=O)Nc1ccccc1 | 4.6
C[C@H]1CN([C@@H](C)CO)C(=O)CCCn2cc(nn2)CO[C@@H]1CN(C)C(=O)Nc1cccc2ccccc12 | -1.3
COc1ccc(S(=O)(=O)Nc2ccc3c(c2)CC(=O)N([C@H](C)CO)C[C@H](C)[C@@H](CN(C)S(=O)(=O)c2cn(C)cn2)O3)cc1 | -3.0
Cc1noc(C)c1S(=O)(=O)Nc1ccc2c(c1)C(=O)N([C@H](C)CO)C[C@@H](C)[C@@H](CN(C)C(=O)NC(C)C)OCCCC[C@@H](C)O2 | -1.2
CNC[C@H]1OCCCC[C@H](C)Oc2ccc(N(C)C)cc2C(=O)N([C@@H](C)CO)C[C@@H]1C | -8.3
C[C@@H]1CN([C@H](C)CO)C(=O)Cc2cc(NC(=O)Nc3ccccc3)ccc2O[C@H]1CN(C)C(=O)Nc1ccc(C(F)(F)F)cc1 | -2.8
C[C@H](CO)N1C[C@H](C)[C@H](CN(C)S(=O)(=O)c2ccc(Cl)cc2)OCc2cn(nn2)CCCC1=O | 0.4
C[C@H](CO)N1C[C@H](C)[C@H](CN(C)Cc2ccc(C(=O)O)cc2)Oc2ccc(NC(=O)Nc3cccc4ccccc34)cc2CC1=O | 1.3
COc1ccc(S(=O)(=O)N(C)C[C@H]2Oc3c(NS(=O)(=O)c4cn(C)cn4)cccc3C(=O)N([C@@H](C)CO)C[C@H]2C)cc1 | -18

Taken from above:
`C[C@@H]1CN([C@H](C)CO)C(=O)Cc2cc(NC(=O)Nc3ccccc3)ccc2O[C@H]1CN(C)C(=O)Nc1ccc(C(F)(F)F)cc1` in Ran importin = -2.8
`C[C@@H]1CN([C@@H](C)CO)C(=O)c2cccc(NC(=O)c3ccc(-c4nccs4)cc3)c2O[C@H]1CN(C)C(=O)Nc1ccccc1` in Ran importin = -9.0
`C[C@H](CO)N1C[C@H](C)[C@H](CN(C)Cc2ccc(C(=O)O)cc2)Oc2ccc(NC(=O)Nc3cccc4ccccc34)cc2CC1=O` in Ran importin = 1.3
`C[C@H]1CN([C@@H](C)CO)C(=O)CCCn2cc(nn2)CO[C@@H]1CN(C)C(=O)Nc1cccc2ccccc12` in Ran importin = -1.3
`Cc1noc(C)c1S(=O)(=O)Nc1ccc2c(c1)C(=O)N([C@H](C)CO)C[C@@H](C)[C@@H](CN(C)C(=O)NC(C)C)OCCCC[C@@H](C)O2` in Ran importin = -1.2
`COc1ccc(S(=O)(=O)N(C)C[C@H]2Oc3c(NS(=O)(=O)c4cn(C)cn4)cccc3C(=O)N([C@@H](C)CO)C[C@H]2C)cc1` in Ran importin = -18
`COc1ccc(S(=O)(=O)Nc2ccc3c(c2)CC(=O)N([C@H](C)CO)C[C@H](C)[C@@H](CN(C)S(=O)(=O)c2cn(C)cn2)O3)cc1` in Ran importin = -3.0

Screens: PubChem, Broad Institute

Some of the compounds tested, so the mix of outcomes need not match the whole.
